# Screening results deposited in PubChem by Broad Institute.
# rRNA inh HTS: inhibitors of bacterial rRNA selective over humanized ribosomes; E. coli WT GFP vs humanized-ribosome RFP mutants, fluorescence, 24 h; hits give low values; DMSO median 0, no signal -100; GFP signal change (wild-type ribosome), % (concentration not given with the values); hit rate 1.6% among 350,000;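 active means significant combined selectivity score with lowered wild-type GFP, culture density cut under 30%, mutant RFP and density less affected; inactive means any of these conditions unmet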; further: one replicate is shown; some compounds called inactive have numbers as strong as hits
# rRNA inh HTS OD600: second read-out of rRNA inh HTS, no call of its own (marks repeat the call); OD600 change, %; measured here: OD600 growth;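 optical density of the mix in the first replicate; 0 = DMSO median and -100 = no signal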
# rRNA inh HTS RFP: also measured in rRNA inh HTS; calls as there; RFP signal change, %; measured here: RFP humanized mutant strains;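 first replicate; 0 = DMSO median and -100 = no signal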
# * hit, by the source's call; & = joins results of further samples. The list is partial (hit frequency here may not be typical).
SMILES,rRNA inh HTS,rRNA inh HTS OD600,rRNA inh HTS RFP
C[C@@H]1CN([C@@H](C)CO)C(=O)c2cc(NC(=O)Nc3ccc4c(c3)OCO4)ccc2O[C@@H]1CN(C)S(=O)(=O)c1cccs1,-4,-16,-5.3
CN(C)C(=O)c1cccc(-c2cccc(-c3nc(C(=O)NC4CCCCC4)cc4c3[C@H](CCO)N([S@@](=O)C(C)(C)C)C4)c2)c1,-10,-28,24
Cc1ccc(C2c3c(n[nH]c3C)C(=O)N2c2ccccc2)cc1 (stereo unspecified),-41,-70,-15
C[C@H](CO)N1C[C@H](C)[C@@H](CN(C)C(=O)NC2CCCCC2)OCCCC[C@H](C)Oc2ccc(NC(=O)CCCN(C)C)cc2C1=O,0,-3,-1.8
C[C@@H]1CCCCO[C@@H](CN(C)C(=O)Nc2ccc(F)cc2)[C@H](C)CN([C@@H](C)CO)C(=O)c2cc(NC(=O)C3CCCCC3)ccc2O1,2,4,1.6
CCNC(=O)C[C@H]1CC[C@@H]2[C@H](COC[C@@H](O)CN2C(=O)Nc2c(C)noc2C)O1,5,10,-4.3
C[C@@H]1CN([C@@H](C)CO)S(=O)(=O)c2ccc(Br)cc2O[C@H]1CN(C)CC1CCOCC1,-3,-14,-2.4
CN1[C@@H]2c3ccc(-c4cccc(F)c4)c(=O)n3C[C@@H]2[C@@H](CO)[C@@H]1C(=O)NC1CCCC1,0,-4,-2.4
CN(C(=O)c1ccc(NC(=O)Cc2cccc(NC(=O)C3CCN(C(=O)CCc4ccccc4)CC3)c2)cc1)C1CC1,1,14,-5.0
C[C@@H]1CCCCO[C@H](CN(C)C(=O)Nc2cccc3ccccc23)[C@H](C)CN([C@@H](C)CO)C(=O)c2cc(NC(=O)c3ccccc3)ccc2O1,3,-6,-2.4
COc1ccccc1-c1cnc(C(O)c2ccc(C)cc2C)[nH]1 (stereo unspecified),2,-4,-2.3
COCCc1ccc(OC2(C)CCN(Cc3cccn3-c3nccs3)C2)cc1 (stereo unspecified),3,10,3.5
CCC(=O)N1C[C@@H](C)[C@H](OC)CN(C)C(=O)c2cc(NC(=O)NC3CCCC3)ccc2OC[C@@H]1C,1,2,-0.2
CC=Cc1ccc2n(c1=O)C[C@H]1[C@H](CO)[C@@H](C(=O)NCC)[C@@H]2N1S(=O)(=O)c1cn(C)cn1 (mixture of isomers),3,-3,-1.1
O=C(C[C@@H]1CC[C@H]2[C@@H](COC[C@H](O)CN2C(=O)c2ccccc2)O1)Nc1ccccc1,0,8,38
CCCN1C[C@@H](C)[C@H](OC)CN(C)C(=O)c2cc(NC(=O)c3cnccn3)ccc2OC[C@H]1C,2,9,-0.9
COCCNC(=O)C[C@H]1C[C@H]2c3cc(N(C)C)ccc3O[C@H]2[C@@H](CO)O1,-1,-3,1.2
CN1CCN(C(=O)C[C@@H]2CC[C@@H]3[C@H](COC[C@H](O)CN3Cc3cccc(F)c3)O2)CC1,0,3,-4.3
CCC(=O)N1CCC1(C)C(=O)Nc1cc(-c2ccccc2)nn1C (stereo unspecified),17,34,3.3
C[C@@H]1CN([C@@H](C)CO)C(=O)c2cccc(NS(=O)(=O)c3cccs3)c2O[C@H]1CN(C)S(=O)(=O)c1ccc(F)cc1,-1,2,-3.7
COc1cccc(-c2cnc3c(c2)C(=O)N([C@H](C)CO)C[C@H](C)[C@H](CN(C)S(=O)(=O)c2ccc(C)cc2)O3)c1,-4,-11,3.7
CCOC1=C2CN(S(=O)(=O)c3ccc(C)cc3)[C@H](c3ccccc3)C[C@H]2[C@H]2C(=O)N(c3ccccc3)C(=O)[C@H]2C1,7,-4,7.3
O=C(CC1CC1)Nc1ccc2c(c1)[C@@H]1C[C@H](CC(=O)NC3CCCCC3)O[C@H](CO)[C@@H]1O2,2,13,0.0
C[C@H]1CN([C@@H](C)CO)C(=O)c2cc(NC(=O)c3ccncc3)ccc2O[C@@H]1CN(C)S(=O)(=O)c1ccc(F)cc1,0,2,0.6
CO[C@H]1CN(C)C(=O)c2ccc(NS(C)(=O)=O)cc2OC[C@@H](C)N(C(=O)c2ccc3c(c2)OCO3)C[C@@H]1C,2,-1,-3.4
CN(C)C(=O)[C@@H]1[C@@H](CO)[C@@H]2Cn3c(ccc(-c4ccncc4)c3=O)[C@H]1N2C(=O)NC1CCCC1,1,8,-1.5
O=C1NC[C@H](CCCCN2C[C@H](Cc3ccccc3)N(CC3CCCCC3)C(=O)C2=O)N(CCC2CCCCC2)C1=O,19,15,2.6
C[C@@H]1CN([C@H](C)CO)C(=O)c2cc(NC(=O)Cc3cn(C)c4ccccc34)ccc2O[C@@H]1CN(C)S(=O)(=O)c1cccs1,1,9,-3.1
COc1cccc(-c2ccc(C3[C@H]4CNC[C@@H]3N4Cc3nccs3)cc2)c1 (stereo partly specified),0&-3,-5&1,0.9&2.9
CN1C(=O)c2cc(NC(=O)c3cccc(F)c3)ccc2OC[C@H]2O[C@H](CC(=O)O)CC[C@@H]21,2,4,-3.8
COCC(=O)N1CC2(C1)CN(Cc1ccccc1F)[C@@H](CO)c1[nH]c3cc(OC)ccc3c12,-1,2,-0.2
O=C(NCc1ccc(F)cc1)c1cc(C2CCCCN2C(=O)CCCc2ccccc2)on1 (stereo unspecified),-4,-10,1.3
COCC(=O)Nc1ccc2c(c1)OC[C@H](C)N(C(=O)c1ccccc1)C[C@@H](C)[C@@H](OC)CN(C)C2=O,0,5,-1.5
Cc1noc(C)c1S(=O)(=O)Nc1ccc2c(c1)C(=O)N([C@H](C)CO)C[C@@H](C)[C@H](CN(C)C(=O)NC(C)C)OCCCC[C@@H](C)O2,-1,4,-1.4
CNC[C@H]1Oc2ncc(Br)cc2C(=O)N([C@H](C)CO)C[C@H]1C,0,5,-0.8
C[C@H]1CN([C@@H](C)CO)C(=O)c2cc(C#CC3(O)CCCC3)cnc2O[C@@H]1CN(C)C(=O)C1CC1,5,9,-2.1
CCCc1cc(C(=O)OCC(=O)NCCc2ccccc2)sc1C,-1,0,4.4
CO[C@H](CN(C)S(=O)(=O)c1cccc(Cl)c1)[C@@H](C)CN(C(=O)Nc1ccccc1F)[C@H](C)CO,-4,-10,4.4
C[C@@H]1CN([C@@H](C)CO)C(=O)c2cc(C#CCN(C)C)cnc2O[C@@H]1CN(C)C(=O)Nc1ccccc1F,3,4,-3.4
COCC(=O)Nc1ccc2c(c1)C(=O)N(C)C[C@H](OC)[C@@H](C)CN(Cc1ccccc1)[C@@H](C)CO2,-2,-2,3.7
Cc1ccc(S(=O)(=O)N(C)C[C@H]2OCCCC[C@@H](C)Oc3ccc(NC(=O)Nc4c(C)noc4C)cc3C(=O)N([C@H](C)CO)C[C@H]2C)cc1,-3,-1,1.1
C/C=C/c1ccc2c(c1)O[C@@H](CN(C)CC1CCOCC1)[C@@H](C)CN([C@@H](C)CO)S2(=O)=O,6,3,-1.0
C[C@H](CO)N1C[C@H](C)[C@H](CN(C)C(=O)C2CCOCC2)Oc2ncc(C3=CCCCC3)cc2C1=O,8,14,-4.7
CC(C)[C@H]1CC=CC[C@H](C)Oc2ccccc2C(=O)N(C)[C@@H](C)C(=O)N1 (mixture of isomers),-1,3,0.5
CCC(=O)NC[C@H]1[C@H](c2ccc(-c3cccc(F)c3)cc2)[C@H](CO)N1C(=O)CC,-5,-7,-0.7

# Retrieved by structure from the entries so far (four):
SMILES,rRNA inh HTS,rRNA inh HTS OD600,rRNA inh HTS RFP
Cc1ccc(S(=O)(=O)N(C)C[C@H]2OCCCC[C@@H](C)Oc3ccc(NC(=O)Nc4c(C)noc4C)cc3C(=O)N([C@H](C)CO)C[C@H]2C)cc1,-3,-1,1.1
C[C@H]1CN([C@@H](C)CO)C(=O)c2cc(C#CC3(O)CCCC3)cnc2O[C@@H]1CN(C)C(=O)C1CC1,5,9,-2.1
O=C(NCc1ccc(F)cc1)c1cc(C2CCCCN2C(=O)CCCc2ccccc2)on1 (stereo unspecified),-4,-10,1.3
CO[C@H](CN(C)S(=O)(=O)c1cccc(Cl)c1)[C@@H](C)CN(C(=O)Nc1ccccc1F)[C@H](C)CO,-4,-10,4.4

# Remaining list, next part.
SMILES,rRNA inh HTS,rRNA inh HTS OD600,rRNA inh HTS RFP
C[C@@H]1CN([C@H](C)CO)C(=O)c2cc(C#CCN(C)C)cnc2O[C@@H]1CN(C)C(=O)c1cnccn1,3,16,-1.9
O=C(c1cnccn1)N1CC2(C1)[C@@H](c1ccccc1)[C@@H](CO)N2C(=O)c1ccccc1,2,-3,-2.4
CC(C)CC#Cc1cnc2c(c1)C(=O)N([C@@H](C)CO)C[C@H](C)[C@@H](CN(C)C(=O)Cc1ccccc1)O2,-4,-20,7.9
CN1[C@@H]2c3ccc(C4=CCCC4)c(=O)n3C[C@H]1[C@H](CO)[C@H]2C(=O)NC1Cc2ccccc2C1,3,2,-0.3
CO[C@@H]1CN(C)C(=O)c2cc(NC(=O)C3CC3)ccc2OC[C@H](C)N(Cc2nccs2)C[C@H]1C,-3,-2,-0.9
C[C@@H]1CN([C@@H](C)CO)C(=O)Cc2cc(NC(=O)C3CC3)ccc2O[C@@H]1CN(C)Cc1ccc(C(=O)Nc2ccccc2N)cc1,0,-1,-2.1
CC1(C)C2CCC(CN)C1C2 (stereo unspecified),9,13,-0.5
Cc1cc(C(=O)N2CCC2(C)C(=O)NS(=O)(=O)c2cccc(Cl)c2)nn1C (stereo unspecified),15,21,-2.4
Cc1c([N+](=O)[O-])oc2c1C(=O)NCCC2,12,11,-0.3
CCCC#Cc1cnc2c(c1)C(=O)N([C@H](C)CO)C[C@H](C)[C@H](CN(C)C(=O)Nc1cc(F)ccc1F)O2,1,-1,1.5
CC(C)(C)S(=O)N1Cc2cc(C(=O)NCC(F)(F)F)nc(-c3cccc(-c4cccc(F)c4)c3)c2[C@@H]1CCO (stereo partly specified),-2,-4,12
CC(C)CC#Cc1ccc2c(c1)O[C@@H](CN(C)C(=O)c1cccc(F)c1)[C@@H](C)CN([C@H](C)CO)S2(=O)=O,3,5,0.9
Cc1noc(C)c1NC(=O)Nc1ccc2c(c1)C(=O)N([C@@H](C)CO)C[C@@H](C)[C@@H](CN(C)C(=O)Nc1ccc(C(F)(F)F)cc1)OCCCC[C@@H](C)O2,1,4,1.5
CC(C)(C)C(=O)Nc1ccc(N2CCN(C(=O)c3cccs3)CC2)cc1,2,7,-0.3
C[C@@H]1CCCCO[C@H](CN(C)C(=O)Nc2ccc(C(F)(F)F)cc2)[C@H](C)CN([C@H](C)CO)C(=O)c2cc(NS(C)(=O)=O)ccc2O1,-6,-16,0.4
C[C@H](CO)N1C[C@H](C)[C@@H](CN(C)Cc2ccccn2)Oc2cc(Br)ccc2S1(=O)=O,-4,-26,-4.7
O=C(C[C@H]1CC[C@H]2[C@@H](COC[C@H](O)CN2C(=O)c2cnccn2)O1)NCc1ccc(Oc2ccccc2)cc1,5,11,-1.6
C[C@H](CO)N1C[C@H](C)[C@H](CN(C)Cc2cncnc2)Oc2ncc(C#Cc3ccccn3)cc2C1=O,0,1,1.3
CC=Cc1ccc2n(c1=O)C[C@@H]1[C@@H](CO)[C@H](C(=O)NCCCN(C)C)N(Cc3cocn3)[C@H]21 (mixture of isomers),3,9,-1.5
C[C@H](CO)N1C[C@H](C)[C@H](CN(C)C(=O)c2ccc3c(c2)OCO3)Oc2cc(/C=C/c3ccccc3)ccc2S1(=O)=O,-2,8,-1.4
CC=Cc1ccc2n(c1=O)C[C@@H]1[C@@H](CO)[C@H](C(=O)NCCC)[C@H]2N1C(=O)C1CCC1 (mixture of isomers),2,1,-0.6
Cc1noc(C)c1NC(=O)Nc1ccc2c(c1)C(=O)N([C@@H](C)CO)C[C@H](C)[C@@H](CN(C)C(=O)Nc1cccc3ccccc13)OCCCC[C@@H](C)O2,1,-1,0.1
Cc1cccc(C)c1-n1nnnc1C(c1ccccc1OC(F)(F)F)N1CCN(C/C=C/c2ccccc2)CC1 (stereo unspecified),12,19,2.7
Cc1noc(C)c1NC(=O)Nc1ccc2c(c1)C(=O)N([C@H](C)CO)C[C@H](C)[C@H](CN(C)CC1CCCCC1)OCCCC[C@@H](C)O2,-3,1,-3.6
O=C1OCC2=Nc3cccc4cccc(c34)N12,-2,-1,8.6
CCc1ccc([C@H]2[C@@H]3C(=O)C[C@@H]4C(=O)N(C5CCCCC5)C(=O)[C@@H]4[C@@H]3CN2S(=O)(=O)c2ccc(C)cc2)cc1,14,3,4.3
COc1ccc(S(=O)(=O)N(C)C[C@H]2Oc3ccc(NC(=O)NC(C)C)cc3C(=O)N([C@@H](C)CO)C[C@H]2C)cc1,-2,-1,0.9
CC(C)NC(=O)N(C)C[C@H]1Oc2ccc(NC(=O)CCCCCC(=O)Nc3ccccc3N)cc2CC(=O)N([C@@H](C)CO)C[C@H]1C,5,9,-1.2
O=S1(=O)CC(N2CCCC2)CN1C1CCCC1 (stereo unspecified),8,15,7.1
N#Cc1cccc(-c2ccc([C@H]3[C@@H](CO)N4CCCCN(S(=O)(=O)c5ccccc5)C[C@H]34)cc2)c1,-31,-51,3.4
CNC[C@H]1Oc2ccc(NC(=O)Nc3ccccc3)cc2CC(=O)N([C@H](C)CO)C[C@@H]1C,2,11,0.3
CO[C@@H]1CN(C)C(=O)c2cc(NC(C)=O)ccc2OC[C@@H](C)N(CCC(F)(F)F)C[C@H]1C,-3,-2,1.3

# A few values from the results shown.
# Result for CCC(=O)N1C[C@@H](C)[C@H](OC)CN(C)C(=O)c2cc(NC(=O)NC3CCCC3)ccc2OC[C@@H]1C in rRNA inh HTS RFP: -0.2
# Result for CCCC#Cc1cnc2c(c1)C(=O)N([C@H](C)CO)C[C@H](C)[C@H](CN(C)C(=O)Nc1cc(F)ccc1F)O2 in rRNA inh HTS: 1
# Result for COc1cccc(-c2ccc(C3[C@H]4CNC[C@@H]3N4Cc3nccs3)cc2)c1 (stereo partly specified) in rRNA inh HTS OD600: -5&1
